StopGo reporter: FMDV 2A StopGo reporter, luciferase signal. human cells with a luciferase reporter of 2A StopGo recoding; control for the full effect not named in the record. Potency, µM (titrated, usually from 57.9 µM), for the others: top-dose signal change, negative = less light. 410,000 tested, 1.2% active. AID 1159524; active = well fitted falling curve with a large enough effect; inconclusive = small, poorly fitted or top-dose-only effect; inactive = no such curve, though single readings can be large or run the other way; tested in HEK293T cells; further: on the % scale 0 is the no-effect control and ±100 the full control effect; nearly all actives have a fitted effect of over 45% in size; luciferase light after 4 h
NS1 inh: inhibitors of influenza NS1 protein function | 270,000 tested, 0.4% active | S. cerevisiae slowed by influenza A NS1, growth recovery by OD600 | Potency, µM (titrated, usually from 46.1 µM), for the others: at the highest dose activity, positive = more growth; active means well fitted rising curve with a large enough effect; inconclusive means small, poorly fitted or top-dose-only effect; inactive means no such curve, though single readings can be large or run the other way; further: nearly all actives have a fitted effect of over 50% in size
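Read-out: OD600 growth recovery of NS1-expressing budding yeast. Cells grown overnight at 30C in -URA glucose medium, washed, resuspended and diluted 1:100 in 2% galactose assay medium, pH 6.0. Same strain lacking NS1 served as positive control.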
Cruzain noTriton: cruzain (T. cruzi) inhibition without detergent. AID 1476. purified cruzain, Z-FR-AMC fluorescence, no detergent. Potency, µM, for inactives: max response, negative = inhibition, usual class: inhibitors. 200,000 tested, 2.3% active;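 further: plate controls were enzyme without inhibitor for no effect and buffer without enzyme for full effect; nearly all actives have a fitted effect of over 40% in size; top concentration of the series not given in the record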
Target sequence (P25779 123-467 limits assumed): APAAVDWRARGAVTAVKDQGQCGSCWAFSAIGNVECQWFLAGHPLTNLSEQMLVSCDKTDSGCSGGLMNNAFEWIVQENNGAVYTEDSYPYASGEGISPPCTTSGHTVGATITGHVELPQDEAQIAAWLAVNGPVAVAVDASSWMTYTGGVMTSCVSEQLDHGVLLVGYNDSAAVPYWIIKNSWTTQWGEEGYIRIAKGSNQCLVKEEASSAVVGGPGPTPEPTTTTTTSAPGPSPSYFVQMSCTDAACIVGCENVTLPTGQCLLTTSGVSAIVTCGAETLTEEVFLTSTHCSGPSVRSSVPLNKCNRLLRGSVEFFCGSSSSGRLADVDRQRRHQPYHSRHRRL
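Purified cruzain at 1.5 nM, pre-incubated 15 min with compound at room temperature in 100 mM sodium acetate pH 5.5, 5 mM DTT, 0.00005% Triton X-100. Reaction started with 2 uM Z-FR-AMC; AMC fluorescence increase over 60 s gives rate.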
RE007 growth inh: less growth of the S. pombe RE007 Vpr strain. AID 651644. 360,000 tested, 0.21% active. S. pombe RE007 Vpr strain, BacTiter-Glo ATP luminescence, 24 h; control for the full effect not named in the record. Potency, µM (series often up to 92.2 µM), for the others: at the top dose activity change, negative = less growth; active = well fitted falling curve with a large enough effect; inconclusive = small, poorly fitted or top-dose-only effect; inactive = no such curve, though single readings can be large or run the other way;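 further: on the % scale 0 is the no-effect control and ±100 the full control effect; nearly all actives have a fitted effect of over 50% in size; the assay follows cell death caused by Vpr and the record does not say whether a fall means rescue or toxicity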
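Fission yeast RE007 carrying one integrated HIV-1 vpr copy, seeded at OD 0.01 in PMG+AL medium with 23 nL pinned compound. Grown 24 h at 30 degrees; viability read by BacTiter-Glo luminescence after 5 min.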
Marburg entry inh: Marburg virus entry inhibition | Marburg virus pseudotyped entry inhibition, cell reporter; control for the full effect not named in the record; about a third of the inactives were read at about 46 µM | 300,000 tested, 1.8% active | Potency, µM (series often up to 37.8 µM), without a hit: top-dose activity change, negative = inhibition, hits mostly inhibitors; active = well fitted inhibition curve with a large enough effect; inconclusive = small, poorly fitted or top-dose-only effect, or effect the other way; inactive = flat fitted curve, though single readings scatter; tested in HEK293 cells; about a fifth of its hits are not listed in these tables; further: on the % scale 0 is the no-effect control and ±100 the full control effect; luciferase read-out
Cruzain inh Det: inhibitors of Trypanosoma cruzi cruzain with detergent; 200,000 tested, 0.43% active; purified cruzain, Z-FR-AMC fluorescence, 0.01% Triton; Potency, µM, for inactives: max response, negative = inhibition, hits mostly inhibitors; AID 1478;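 further: plate controls were neutral wells for no effect and buffer without enzyme for full effect; nearly all actives have a fitted effect of over 40% in size; top concentration of the series not given in the record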
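Cruzain (1.5 nM) preincubated 15 min at RT with compound in 100 mM sodium acetate pH 5.5, 5 mM DTT, 0.01% Triton X-100. Reaction started with 2 uM Z-FR-AMC; AMC fluorescence (ex 360/em 450 nm) change over 60 s gave rate.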
LASV entry inh: inhibitors of Lassa virus binding or cell entry | Lassa virus pseudotype entry inhibition, cell reporter; control for the full effect not named in the record | Potency, µM (top dose mostly 37.9 µM), inactives show at the top dose activity change, negative = inhibition, hits mostly inhibitors | 300,000 tested, 1.2% active; active means well fitted inhibition curve with a large enough effect; inconclusive means small, poorly fitted or top-dose-only effect, or effect the other way; inactive means flat fitted curve, though single readings scatter; tested in HEK293 cells; further: on the % scale 0 is the no-effect control and ±100 the full control effect; nearly all actives have a fitted effect of over 50% in size; luciferase read-out
SARS PLpro yeast: inhibitors of SARS-CoV papain-like protease in yeast | Potency, µM (highest dose often 32.9 µM), without a hit: top-dose activity, positive = growth rescue | 330,000 tested, 0.19% active | S. cerevisiae expressing SARS-CoV PLpro, growth rescue; control for the full effect not named in the record; active means well fitted rising curve with a large enough effect; inconclusive means small, poorly fitted or top-dose-only effect; inactive means no such curve, though single readings can be large or run the other way; further: 0% is about no effect; nearly all actives have a fitted effect of over 55% in size; growth read by luminescence after 48 h
Active calls of the source: *; ? = inconclusive; · = no result given; & = joins results of further samples; [ ] = remark or other dose. Unless noted, the call rests on the fitted dose curve; in most records, active means well fitted curve in the direction sought with a large enough effect; inconclusive means small, poorly fitted or top-dose-only effect, or another doubt; inactive means no such curve, though single readings can be large; an effect the other way counts as inactive or inconclusive. Potency means the concentration at half of the fitted maximal effect.

Compound | StopGo reporter | Cruzain inh Det | Marburg entry inh | RE007 growth inh | SARS PLpro yeast | Cruzain noTriton | NS1 inh | LASV entry inh
COc1ccc(NC(=O)NCc2ccccn2)cc1OC | 13% | 1.5% | 5% | -7% | 4% | 0% | 0% | -4%
CCCC(=O)Nc1cccc(-c2nc3cc(C)c(C)cc3o2)c1 | 3% | -5.8% | ? | -6% | -4% | 19% | -9% | -1%
Cc1cccc(NC(=O)CSCC(=O)Nc2ccccc2C(=O)NC2CC2)c1 | 1% | · | -3%[46.1 µM] | 3% | -3% | · | · | 2%
O=C(Nc1cc2c(oc1=O)CCCC2=O)c1ccc(Cl)cc1 | 34%[activator] | -0.4% | -3% | 6% | 1% | 1% | -10% | ?
O=C(CNC(=O)c1ccc(Br)o1)NCc1ccccc1 | 16% | · | -1%[46.1 µM] | 17% | 0% | · | -1% | -22%[46.1 µM]
COc1ccc(COC(=O)CCS(=O)(=O)c2ccc(C)cc2)cc1 | -12% | · | -2%[46.1 µM] | 8% | · | · | · | 10%
CCN1CSC(=S)N(Cc2ccccc2)C1 | -21% | · | ? | ? | 0% | · | -3% | 4%[46.1 µM]
C/C(=N\NC(=S)NCCc1ccccc1)c1ccc(Cl)cc1Cl | -22% | · | ? | -3% | ? | · | -44% | -27%
C/C(=N\NC(=O)c1ccc(-c2ccccc2)cc1)C1C(=O)c2ccccc2C1=O | ? | · | · | -12% | 0% | · | -3% | ·
O=[N+]([O-])c1ccccc1NCCNc1ncc(C(F)(F)F)cc1Cl | 12% | -9.2% | 1% | -4% | 2% | -4% | 2% | 17%
CN1C(=O)c2ccc(C(=O)Nc3ccccc3O)cc2C1=O | 39%[activator] | · | · | -1% | -1% | · | 1% | ·
C(=N\N1CCN(C2c3ccccc3-c3ccccc32)CC1)/c1ccncc1 | 0% | -5.9% | -24% | -10% | -5% | 10% | -3% | -19%

The closing 3 compounds of the part before lead into the next:
Compound | StopGo reporter | Cruzain inh Det | Marburg entry inh | RE007 growth inh | SARS PLpro yeast | Cruzain noTriton | NS1 inh | LASV entry inh
O=[N+]([O-])c1ccccc1NCCNc1ncc(C(F)(F)F)cc1Cl | 12% | -9.2% | 1% | -4% | 2% | -4% | 2% | 17%
CN1C(=O)c2ccc(C(=O)Nc3ccccc3O)cc2C1=O | 39%[activator] | · | · | -1% | -1% | · | 1% | ·
C(=N\N1CCN(C2c3ccccc3-c3ccccc32)CC1)/c1ccncc1 | 0% | -5.9% | -24% | -10% | -5% | 10% | -3% | -19%
CCOc1ccc(NC(=O)CSc2nc3ccccc3c(=O)n2CCCC(=O)NCCCN2CCCC2=O)cc1 | 7% | · | ? | -6% | -2% | · | · | ?
Cc1ccc(C(=O)OCC(=O)NC(C)C)cc1S(=O)(=O)N1CCOCC1 | -11% | · | 6%[46.1 µM] | 8% | 0% | · | · | 14%
CCOC(=O)C1C2C=CC3(CN(c4ccc(Cl)c(F)c4)C(=O)C13)O2 (stereo not given) | -19% | -3.7% | · | -11% | 1% | -19% | ? | ·
COc1ccc(-c2cc(C(=O)Nc3ccc4c(c3)OCO4)no2)cc1OC | 1%&-18% | -0.5% | ? | 8% | -4% | -7% | 11% | 15%
CC(C)(C)OC(=O)NC(=NCCCc1cn(CC(=O)N2CCN(C(=O)OC(C)(C)C)CC2)nn1)NC(=O)OC(C)(C)C | -14% | · | · | 4% | -1% | · | 8% | ·
COCCCn1c(=O)/c(=C\c2ccc(OC(F)F)c(OC)c2)s/c1=C(/C#N)C(=O)NCCOC | -13% | · | ? | 2% | 0% | · | 2% | -11%
Nc1ccc(C23CC4CC(CC(CO)(C4)C2)C3)cc1 | 13% | 3.4% | 13% | 15% | 11% | -6% | ? | 6%
CCC(CC)C(=O)NCCc1cc2c(OC)ccc(OC)c2[nH]c1=O | 0% | 5.1% | 12% | 1% | -1% | 6% | 0% | 1%
COCCC1CCCCN1C(=O)c1cc(COc2cccc(C(C)=O)c2)on1 (stereo not given) | -5% | · | -28%[46.1 µM] | 2% | ? | · | -16% | 4%[46.1 µM]
O=C(NCC1CCCO1)c1cc2c([nH]c3ccccc32)c(-c2cccc(Br)c2)n1 (stereo not given) | ? | · | · | 1% | -16% | · | -21% | ·
C/C(=N\NC(=O)c1ccncc1)c1cccc(NC(=O)c2ccc(Cl)s2)c1 | 14% | · | 3%[46.1 µM] | -7% | ? | · | -34% | -14%[46.1 µM]
CCCCc1nc2sc3c(SCC(=O)NCc4ccco4)ncnc3c2c2c1CCC2 | -19% | -11% | ? | 1% | -6% | 1% | 2% | -15%
NC(=S)N/N=C/c1coc2ccc(Br)cc2c1=O | -7% | · | 0%[46.1 µM] | -6% | -3% | · | -52% | 14%[46.1 µM]
CC(C)c1nc2ccc(C(=O)NCCCN3CCN(c4cccc(Cl)c4)CC3)cc2o1 | 0% | -5.6% | · | · | · | 10% | · | 3%[46.1 µM]
C=CCCC(=O)Nc1nc(C)c(-c2csc(Nc3ccccc3OC)n2)s1 | -19% | -9.2% | · | 8% | -11% | ? | 1% | ·
Cc1ccc2nc(N3CCN(Cc4ccc(F)cc4)C3=O)c(C)cc2c1 | -16% | -5.5% | -8%[46.1 µM] | -21% | -39% | 0% | -171% | ?
O=C(N/N=C/c1cc2ccccc2[nH]1)c1ccccc1Cl | 8% | · | 24%[46.1 µM] | 0% | -2% | · | ? | ?
CCCc1ccc(S(=O)(=O)N(C)S(=O)(=O)c2ccc(F)cc2)cc1 | -15% | · | ? | 1% | -9% | · | ? | 3%[46.1 µM]
COc1ccc2c(c1)c1c(c(=O)n(-c3cccc(C)c3)c(=O)n1CC(=O)NCc1ccc(C)cc1)n2C | -12% | -1.1% | · | · | · | 6% | · | 17%[46.1 µM]
COc1cc(/C=C2\SC(=Nc3ccc(N4CCOCC4)cc3)N(C)C2=O)ccc1OC(C)C(=O)O (stereo not given) | -2% | -12% | ? | 18% | -5% | 12% | 12% | 25%
COc1ccc(NC(=O)CO/N=C2/CCCc3nonc32)c(OC)c1 | -9% | · | -14%[46.1 µM] | -4% | 1% | · | · | 6%
Cc1ccccc1Nc1nc(N)nc(CSc2nnnn2-c2ccccc2)n1 | · | -4.2% | -13% | -1% | -1% | -6% | -39% | ?
CCC(Cc1ccccc1)NS(=O)(=O)c1ccc2c(c1)NC(=O)C(C)S2 (stereo not given) | -16% | · | · | 2% | 5% | · | -2% | ·
O=C(NCCO)C(=O)Nc1cc2c3c(c1)CCN3C(=O)CC2 | -6% | · | · | -4% | 1% | · | -8% | ·
CCOC(=O)c1sc(NC(=O)C2CC=CCC2C(=O)O)nc1C (stereo not given) | · | 0.0% | 10% | 6% | -6% | -6% | 6% | -22%
COc1ccccc1CNCc1cc(=O)oc2c(C)c(C)ccc12 | -23% | · | ? | -10% | 0% | · | -2% | -9%[46.1 µM]
COc1ccc(Cl)cc1NC(=O)N1CC(=O)Nc2sc3c(c2C1c1ccccc1)CCCC3 (stereo not given) | 1% | -3.1% | 9%[46.1 µM] | · | · | -1% | · | 13%[46.1 µM]
O=C(NC1CC1)C1CCN(C2CCN(C(=O)/C=C/c3ccc(F)cc3)CC2)CC1 | -6% | · | 17%[46.1 µM] | -14% | 1% | · | -2% | -5%
CCn1c(C)c(C2=CCN(S(=O)(=O)c3ccccc3)CC2)c2ccccc21 | ? | -4.9% | ? | 3% | -6% | ? | 18% | ?
CCc1ccc2oc(-c3cc(NC(=O)c4cccs4)ccc3Cl)nc2c1 | 21% | -1.3% | ? | · | · | ? | · | 1%[46.1 µM]
Cc1cccc(-c2onc3ccc(C(=O)/C=C/N(C)C)cc23)c1 | -14% | · | · | 20% | -5% | · | 16% | ·
O=C(N/N=C/c1cccnc1)c1ccc(NC(=O)c2ccc(F)cc2)cc1 | -1% | · | 12%[46.1 µM] | -6% | -2% | · | -6% | ?
Cc1nn(-c2ccccc2)c(Cl)c1/C=N/NC(=O)c1ccco1 | 40%[activator] | -2.3% | ? | -3% | -5% | -4% | -54% | 5%
CSc1nc2ncc3c(n2n1)CC1c2ccccc2CCN1C3=O (stereo not given) | ? | -2.6% | -1% | -7%[3.69 µM] | 2% | -3% | -1% | -22%
O=C(Nc1ccc(N2CCCC2)c(Cl)c1)c1ccc([N+](=O)[O-])o1 | 12% | · | 8.9µM* | -6% | -24% | · | · | ?
COc1ccc(Cl)cc1NC(=O)CNc1ccccc1F | 7% | -8.0% | -4% | 2% | 0% | 4% | -4% | ?
Cc1nnc(SCC(=O)N/N=C/c2cn(-c3ccccc3)nc2-c2ccccc2)n1-c1ccccc1 | 28µM* | 5.4% | ? | -8% | 3% | ? | ? | ?
Cc1c2c(=O)n(-c3nc4ccccc4s3)nc-2cc(O)n1Cc1ccccc1 | 7.1µM* | · | · | 5% | 2% | · | 15% | ·
O=C(NC1CCCC1)C(c1cccnc1)N(Cc1ccccc1F)C(=O)c1csnn1 (stereo not given) | -3% | · | -10%[46.1 µM] | 1% | 2% | · | 11% | 19%[46.1 µM]
C=CCNC(=S)N/N=C/c1ccc(OCc2ccccc2Cl)cc1 | -13% | 0.3% | -10% | 1% | 5% | -17% | -2% | ?
O=C(Nc1nc(-c2cc3ccccc3oc2=O)cs1)c1ccc(Br)o1 | ? | ? | ? | -15% | -3% | ? | 5% | 0%
Cc1cc(C(=O)N2CCCc3ccccc32)ccc1[N+](=O)[O-] | ? | · | 0%[46.1 µM] | -21% | 0% | · | -15% | -22%[46.1 µM]
O=C(c1cccnc1)N1N=C2CCCCCC2C1(O)C(F)(F)F (stereo not given) | -13% | · | -16%[46.1 µM] | -15% | -1% | · | 5% | -12%
CCN1CCN(c2oc(/C=C/c3ccc(OC)c(OC)c3)nc2C#N)CC1 | -9% | -22% | -17%[46.1 µM] | · | · | 20µM* | · | 5%[46.1 µM]
COc1ccc(CSC2=NCCN2)cc1Cl | -6% | 2.0% | ? | 11% | 2% | 2% | 8% | 10%

This is a random part of the collection. Share with any hit: about 4.7%.
